RecA splice inh – Mtb RecA intein splicing inhibition; P9WHJ3; cell-free RecA intein splicing, fluorescence; inhibition, %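 (about 9 µM by stock and volumes)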; 0.75% of 290,000 active; AID 2221; in the data active = inhibition above about 30%; inconclusive = no clear call, values can overlap the other calls;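 also: 0% = vehicle wells and 100% = reference inhibitor control wells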
Target sequence (P9WHJ3 whole entry, looked up, canonical isoform): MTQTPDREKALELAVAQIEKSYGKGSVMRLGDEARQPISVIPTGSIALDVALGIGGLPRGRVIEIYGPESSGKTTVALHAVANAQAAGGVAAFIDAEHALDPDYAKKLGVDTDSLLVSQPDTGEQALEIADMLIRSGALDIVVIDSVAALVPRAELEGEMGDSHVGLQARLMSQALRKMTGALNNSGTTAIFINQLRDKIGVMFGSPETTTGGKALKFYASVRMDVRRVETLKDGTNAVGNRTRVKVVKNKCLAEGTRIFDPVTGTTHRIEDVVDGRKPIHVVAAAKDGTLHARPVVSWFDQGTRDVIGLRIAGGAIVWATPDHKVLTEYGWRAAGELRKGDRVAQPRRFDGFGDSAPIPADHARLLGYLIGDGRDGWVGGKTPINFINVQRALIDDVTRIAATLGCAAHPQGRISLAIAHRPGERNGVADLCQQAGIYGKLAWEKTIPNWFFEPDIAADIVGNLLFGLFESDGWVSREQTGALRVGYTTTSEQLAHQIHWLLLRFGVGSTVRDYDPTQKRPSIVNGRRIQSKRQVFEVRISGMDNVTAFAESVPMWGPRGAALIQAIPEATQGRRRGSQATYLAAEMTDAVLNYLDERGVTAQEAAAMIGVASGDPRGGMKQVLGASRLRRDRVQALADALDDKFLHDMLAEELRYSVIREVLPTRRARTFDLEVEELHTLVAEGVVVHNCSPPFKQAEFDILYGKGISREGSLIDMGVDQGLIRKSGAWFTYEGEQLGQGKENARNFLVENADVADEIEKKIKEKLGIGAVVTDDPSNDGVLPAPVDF
Mtb growth – M. tuberculosis H37Rv growth inhibitors, H37Rv strain (AID 1626) | M. tuberculosis H37Rv growth inhibition; higher % means a stronger effect | one-dose inhibition, % at 10 µM; IC50 in µM for titrated hits | 0.95% of 220,000 active;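 active = confirmed in a dose series; inconclusive = inhibition above 80% but not taken into the dose series; inactive = below 80% or under 30% at every dose of the series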;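 also: bacteria incubated seven days before Alamar blue readout; 0% = bacteria only wells and 100% = bacteria with antibiotic wells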
YopH inh – blocks Yersinia enterocolitica YopH tyrosine phosphatase; fluorescence Ex485/Em525; AID 898; 0.16% of 140,000 active; inhibition, %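 (about 10 µM by stock and volumes)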;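 active = inhibition of 50% or more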;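 also: controls were vehicle for no effect and minimum signal wells for full effect; inactives centre near -20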
Arbovirus anti – blocks arbovirus infection; arbovirus infection cell-based antiviral screen; inhibition, % at 10 µM; 0.37% of 200,000 active; AID 1251;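 active = inhibition from about 30%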;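 also: bluetongue infection of BSR cells; cell survival read as ATP light after 72 h; 0% = infected wells without compound and 100% = uninfected wells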
Mtb bLac sens – beta-lactam sensitization of Mtb H37Rv; M. tuberculosis H37Rv growth with meropenem, percent inhibition; hits of this screen are not shown here; inhibition, % at 25 µM; 0.27% of 330,000 active; AID 434955;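 active = about 74% or more and at least 40 points above the plate without the antibiotic, then above 30% in a dose series; inconclusive = first-round hits that could not be retested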;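 also: growth measured after seven days incubation then overnight dye step; 0% = bacteria only wells and 100% = bacteria with antibiotic; twin plates without the antibiotic show which effects depend on it; some results filed as inactive read as strong as hits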
Arbovirus anti repeat – recorded beside Arbovirus anti, whose call it bears; inhibition, %; measured here: 10K subset replicate screen; many hits read low in the repeat;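 first of two repeat runs on a subset; 0% = infected and 100% = uninfected wells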
* = called active by the depositor.

How did CC1=Nn2c(nnc2-c2cc(C)[nH]n2)SC1 do in these assays?
RecA splice inh: -3.0; Mtb growth: -8%; YopH inh: -24; Arbovirus anti: 4; Mtb bLac sens: -11

What do the screens show for `Nc1c(C(=O)O)ccc2c1C(=O)c1ccccc1C2=O`?
RecA splice inh: 11; Mtb growth: 1%; Arbovirus anti: -7; Mtb bLac sens: -1

How did S=C(NCCc1ccc(Cl)cc1)NC1CC1 do in these assays?
RecA splice inh: -1.0; Mtb growth: 0%; Arbovirus anti: 1; Mtb bLac sens: -6

Results for CCc1cc(C(=O)OC)c(NC(=O)C2CC(=O)NN2Cc2ccccc2)s1 (centres undefined) ?
RecA splice inh: -2.2; Mtb growth: 15%; YopH inh: -23; Arbovirus anti: -5; Mtb bLac sens: 5

Results for COc1cc2c(cc1OC)CN(C(=S)Nc1cccc(Cl)c1C)CC2 ?
Mtb growth: 3%; Mtb bLac sens: -7

Results for O=C(/C=C/c1ccco1)NC(=S)Nc1nc(-c2ccc3ccccc3c2)cs1 ?
RecA splice inh: 2.4; Mtb growth: 8%; YopH inh: -19; Arbovirus anti: -15; Mtb bLac sens: 2

How did Cc1ccc2oc(-c3cccc(NC(=O)Cc4cccs4)c3)nc2c1 do in these assays?
RecA splice inh: 1.0; Mtb growth: -4%; YopH inh: -15; Arbovirus anti: 1; Mtb bLac sens: -1

What do the screens show for `CC(Sc1nnc(Cc2ccc([N+](=O)[O-])cc2)o1)C(N)=O` (centres undefined)?
RecA splice inh: -3.3; Mtb growth: -3%; YopH inh: -27; Arbovirus anti: 5; Mtb bLac sens: 14

Results for COc1ccc(CN(C)CC2CCCN(CCc3ccccc3C)C2)cc1O (centres undefined) ?
RecA splice inh: -0.5; Mtb bLac sens: 3

What do the screens show for `O=C(CSc1nnc(NC(=O)c2ccccc2F)s1)NC1CCCC1`?
RecA splice inh: -1.1; Mtb bLac sens: 6

Results for COc1ccc([N+](=O)[O-])cc1NC(=O)C(C)Sc1nc(C)c(C)c(C)n1 (centres undefined) ?
RecA splice inh: -1.0; Mtb growth: 11%; YopH inh: -33; Arbovirus anti: 5; Mtb bLac sens: 6

Results for Cc1nnc(NC(=O)CSc2nnc(Cc3ccccc3)n2Cc2ccccc2)s1 ?
RecA splice inh: 0.0; Mtb growth: -7%; YopH inh: -31; Arbovirus anti: 16; Mtb bLac sens: -3

Results for COC(=O)C1=C(C)N=C2SC(C#N)=C(N)N2C1c1cc(OC)c(OC)c(OC)c1 (centres undefined) ?
RecA splice inh: -11; Mtb growth: -7%; YopH inh: 6; Arbovirus anti: 0; Mtb bLac sens: -13

Results for O=C(Nc1ccccc1Cl)NC1(C(=O)N2CCC(O)CC2)CCCCC1 ?
RecA splice inh: -1.4; Mtb bLac sens: -1

How did O=C(OCc1cn(-c2ccc(Cl)c(Cl)c2)nn1)c1ccccc1Cl do in these assays?
RecA splice inh: 3.3; Mtb growth: -2%; YopH inh: -34; Arbovirus anti: 2; Mtb bLac sens: -2

Results for CCOc1ccc(C(=O)CSc2nnc(C3CC3)n2C)cc1 ?
RecA splice inh: -1.0; YopH inh: -11; Arbovirus anti: 0; Mtb bLac sens: -12

What do the screens show for `CCNC(=S)N(Cc1cc2cccc(C)c2[nH]c1=O)C1CCCC1`?
RecA splice inh: 1.5; Mtb growth: 2%; YopH inh: -4; Arbovirus anti: -4; Mtb bLac sens: -5

What do the screens show for `O=C1CSC(c2cccnc2)N1Cc1ccc(Cl)c(Cl)c1` (centres undefined)?
RecA splice inh: 7.1; Mtb growth: 2%; Mtb bLac sens: -5

Results for CCCn1nnc(NC(=O)c2cccc(Cl)c2)n1 ?
RecA splice inh: -0.3; Mtb growth: 1%; YopH inh: 0; Arbovirus anti: 1; Mtb bLac sens: -11

Results for COc1cc(NC(=S)NCCc2ccccc2)c(OC)cc1NC(=O)C(C)C ?
RecA splice inh: 0.5; Mtb growth: -6%; Mtb bLac sens: -5

For reference, some entries already given:
How did CC1=Nn2c(nnc2-c2cc(C)[nH]n2)SC1 do in these assays?
RecA splice inh: -3.0; Mtb growth: -8%; YopH inh: -24; Arbovirus anti: 4; Mtb bLac sens: -11

What do the screens show for `Nc1c(C(=O)O)ccc2c1C(=O)c1ccccc1C2=O`?
RecA splice inh: 11; Mtb growth: 1%; Arbovirus anti: -7; Mtb bLac sens: -1

How did S=C(NCCc1ccc(Cl)cc1)NC1CC1 do in these assays?
RecA splice inh: -1.0; Mtb growth: 0%; Arbovirus anti: 1; Mtb bLac sens: -6

Results for CCc1cc(C(=O)OC)c(NC(=O)C2CC(=O)NN2Cc2ccccc2)s1 (centres undefined) ?
RecA splice inh: -2.2; Mtb growth: 15%; YopH inh: -23; Arbovirus anti: -5; Mtb bLac sens: 5

Results for COc1cc2c(cc1OC)CN(C(=S)Nc1cccc(Cl)c1C)CC2 ?
Mtb growth: 3%; Mtb bLac sens: -7

Results for O=C(/C=C/c1ccco1)NC(=S)Nc1nc(-c2ccc3ccccc3c2)cs1 ?
RecA splice inh: 2.4; Mtb growth: 8%; YopH inh: -19; Arbovirus anti: -15; Mtb bLac sens: 2

Further results.
How did COc1ccc(Cc2nnc(NC(=O)C3CC(=O)N(c4ccccc4)C3)s2)cc1OC (centres undefined) do in these assays?
RecA splice inh: -0.3; Mtb bLac sens: -5

Results for CC(C)[C@@H]1NC(=O)c2cc([N+](=O)[O-])cc(I)c2NCCC[C@@H](C(=O)NC(CC(=O)O)C(N)=O)NC(=O)[C@H](CO)NC1=O (some centres undefined) ?
RecA splice inh: -1.9; Mtb growth: 2%; YopH inh: -27; Arbovirus anti: 0; Mtb bLac sens: -22

Results for O=C(O)c1ccc(NC(=O)c2ccc(COc3ccc(Cl)cc3)o2)cc1 ?
RecA splice inh: -3.2; Mtb bLac sens: 3

Results for CCOC(=O)C1=C(c2ccccc2)Nc2ncnn2C1c1ccc(C(=O)O)cc1 (centres undefined) ?
RecA splice inh: 0.5; Mtb growth: -7%; Mtb bLac sens: -5

Results for Cc1nn(CCOc2ccccc2Cl)c(C)c1[N+](=O)[O-] ?
RecA splice inh: -1.3; Mtb bLac sens: 1

Results for COc1ccc(C)cc1NC(=O)COC(=O)c1ccccc1SCC(=O)N1CCCC1 ?
RecA splice inh: -0.2; Mtb bLac sens: -12

Results for COc1ccc(CN2C(=O)CC(C(=O)NCCc3ccc(S(N)(=O)=O)cc3)SC2=Nc2ccccc2)cc1 (centres undefined) ?
RecA splice inh: 5.0; Mtb growth: -7%; Arbovirus anti: -10; Mtb bLac sens: -8

What do the screens show for `Cc1c(C(=O)NCc2ccc(F)cc2)c(-c2ccccc2)nn1-c1ccccc1`?
RecA splice inh: -1.6; Mtb growth: 3%; YopH inh: 3; Arbovirus anti: -5; Mtb bLac sens: 0

How did COCC1CCN(Cc2cn(Cc3ccccc3)nc2-c2cc3ccccc3o2)CC1 do in these assays?
RecA splice inh: 1.7; Mtb growth: 6%; Arbovirus anti: -21; Mtb bLac sens: 1

How did NC(=S)N=Nc1c(O)n(CCCl)c2ccc(Br)cc12 do in these assays?
RecA splice inh: 8.7; Mtb growth: -2%; Mtb bLac sens: -2

What do the screens show for `Cc1ccc(NC(=O)CCNC(=O)c2ccco2)cc1F`?
RecA splice inh: -0.1; Mtb growth: 33%; Arbovirus anti: 8; Mtb bLac sens: 1

What do the screens show for `Cc1cc(C)c(C#N)c(SCC(=O)c2ccc(Cl)cc2Cl)n1`?
RecA splice inh: 7.7; Mtb growth: -2%; YopH inh: -1; Arbovirus anti: -7; Mtb bLac sens: 11

Results for CC(CCc1ccccc1)NC(=O)COC(=O)c1ccc(NC(=O)CC#N)cc1 (centres undefined) ?
RecA splice inh: -0.3; Mtb bLac sens: 5

How did COc1cccc(NC(=S)C(C#N)=C2N(C)c3ccccc3N2C)c1 do in these assays?
RecA splice inh: 0.1; Mtb growth: 0%; Arbovirus anti: 7; Mtb bLac sens: -2

Results for CCCn1c(SCC(=O)Nc2sc(C)c(C)c2C(=O)OCC)nc2c1c(=O)n(C)c(=O)n2C ?
RecA splice inh: -5.1; Mtb growth: -4%; YopH inh: -32; Arbovirus anti: -4; Mtb bLac sens: 2

What do the screens show for `O=C(Nc1ccc(Cl)cc1)/C(=C/c1cccc(O)c1)c1nc2ccccc2s1`?
RecA splice inh: 46*; Mtb growth: 22%; YopH inh: -17; Arbovirus anti: -34; Mtb bLac sens: 9

What do the screens show for `N#CC1=C(N)Oc2cc(O)ccc2C1c1cccs1` (centres undefined)?
RecA splice inh: -7.0; Mtb growth: 5%; YopH inh: -28; Arbovirus anti: -3; Mtb bLac sens: -2

Results for Cc1[nH]c2ccccc2c1/C=N/NC(=O)c1cccs1 ?
RecA splice inh: -2.3; Mtb growth: -5%; Arbovirus anti: -16; Mtb bLac sens: 6

Results for COCCNCCCCOc1ccc(Br)cc1C ?
RecA splice inh: -0.5; Mtb growth: -3%; YopH inh: -29; Arbovirus anti: -34; Mtb bLac sens: -3

Results for Cc1ccc(C(=O)OCC(=O)NCCNC(=O)COC(=O)c2ccc(C)s2)s1 ?
RecA splice inh: -1.1; Mtb bLac sens: -10

Results for CCOC(=O)c1c(C)[nH]c(C)c1S(=O)(=O)NCCc1ccc(SC)cc1 ?
RecA splice inh: -9.0; Mtb bLac sens: 24

Results for Cc1ccc(P(=O)(O)c2ccc(C)cc2)cc1 ?
RecA splice inh: 0.8; Mtb growth: 1%; YopH inh: -46; Arbovirus anti: 4; Mtb bLac sens: 2

Results for CC(C)CCNC(=O)CSc1nc2ccsc2c(=O)n1NC(=O)c1ccccc1 ?
RecA splice inh: 0.8; Mtb growth: -5%; YopH inh: -29; Arbovirus anti: 0; Mtb bLac sens: -1

Results for CCCCCc1c(C)nc(Nc2nc(C)c3cc(OC)ccc3n2)[nH]c1=O ?
RecA splice inh: 3.0; Mtb growth: 12%; YopH inh: -9; Arbovirus anti: -4; Mtb bLac sens: 85

Results for O=C(COC(=O)c1cccs1)Nc1ccccc1 ?
RecA splice inh: -7.1; Mtb growth: 0%; YopH inh: -11; Arbovirus anti: 1; Mtb bLac sens: -3; Arbovirus anti repeat: 2

What do the screens show for `COc1ccc(-c2c(C)oc3c(CN4CCN(CCO)CC4)c(O)ccc3c2=O)cc1OC`?
RecA splice inh: -6.7; YopH inh: -20; Arbovirus anti: 13; Mtb bLac sens: -19

Results for NC(=O)NC(=O)c1nccnc1C(=O)O ?
RecA splice inh: -1.7; Mtb growth: -7%; Mtb bLac sens: -5

What do the screens show for `Cc1ccc(-c2nn(-c3ccccc3)cc2CO)cc1`?
RecA splice inh: 2.2; Mtb bLac sens: -1

Results for CCN(CC)CCN(C(=O)c1ccc2c(c1)CCCC2)c1nc2cc(OC)c(OC)cc2s1 ?
RecA splice inh: 0.8; Mtb bLac sens: 2

How did Cc1cc(C)c(C#N)c(SCS(=O)Cc2ccccc2)n1 (centres undefined) do in these assays?
RecA splice inh: 2.5; Mtb growth: -6%; YopH inh: -29; Arbovirus anti: -2; Mtb bLac sens: 1

Results for CCc1ccc(S(=O)(=O)N2CC(=O)Nc3ccccc32)cc1 ?
RecA splice inh: 0.9; Mtb growth: 4%; YopH inh: -27; Arbovirus anti: -3; Mtb bLac sens: 4

How did CCc1nc(Nc2cccc(OC)c2)c2oc3ccccc3c2n1 do in these assays?
RecA splice inh: 0.9; Mtb bLac sens: inconclusive

Results for O=C(N/N=C\c1ccncc1)c1ccc(Cl)s1 ?
RecA splice inh: 0.5; Mtb bLac sens: 6

What do the screens show for `O=C(N/N=C1/CN2CCC1CC2)c1cc2ccccc2cc1O`?
Mtb growth: 0%; YopH inh: 23; Arbovirus anti: -22; Mtb bLac sens: 15

How did CN(Cc1ccc(F)cc1)C(=O)c1cccc(NS(=O)(=O)c2ccccc2)c1 do in these assays?
RecA splice inh: -0.4; Mtb bLac sens: -2

How did COc1ccc(NC(=O)c2sc3nc(N4CCCC4)c4c(c3c2N)CC(C)(C)OC4)cc1 do in these assays?
RecA splice inh: 0.8; Mtb bLac sens: inconclusive

Results for Cc1cc(C)nc(N(C#N)Cc2ccccc2C)n1 ?
RecA splice inh: -2.2; Mtb growth: -4%; Arbovirus anti: -11; Mtb bLac sens: 1

Results for COc1ccc([N+](=O)[O-])cc1NC(=O)c1ccc(CN(c2ccccc2)S(C)(=O)=O)cc1 ?
RecA splice inh: -3.2; Mtb growth: 6%; YopH inh: -23; Arbovirus anti: -1; Mtb bLac sens: -3

How did COc1ccc(OC)c(C2CC(=O)c3c([nH]c(C(=O)OC(C)C)c3C)C2)c1 (centres undefined) do in these assays?
RecA splice inh: 0.6; Mtb growth: -16%; YopH inh: -46; Arbovirus anti: 6; Mtb bLac sens: 6; Arbovirus anti repeat: -14

Source: PubChem BioAssay (several laboratories)

This is a subset; rates above refer to the full screens.
